Assay outcomes from PubChem BioAssay.
Yeast UUG start – modulators of yeast start codon fidelity, primary screen, whole organism, S. cerevisiae, single point, plate reader; actives 0.13% (n = 350,000); activity score, % at 18.7 µM; S. cerevisiae UUG-firefly luciferase reporter, luminescence/redox ratio;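 active means replicate mean at a twofold rise or more, about +100% in these data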;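 further: firefly luciferase made from a UUG start codon reports start codon fidelity; reporter light over untreated wells divided by growth signal over untreated wells; some hits fall short of that in this replicate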
HIV Env fusion – inhibitors of HIV-1 Env-driven cell-cell fusion, primary screen, HeLa-JRFL effector, CEM21 target cells, luciferase; inhibition, % at 12.3 µM; actives 1.1% (n = 360,000); AID 651610, 2012;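 active means mean replicate inhibition score of at least 50 and every replicate individually at or above 50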;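 further: 0% = plate neutral controls and 100% = maraviroc near 300 nM; one replicate is shown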
Active calls of the source: *; [ ] = dose if it differs, or a comment. Only part of the results is shown (hit frequency here may not be typical).

Each structure is followed by: HIV Env fusion, Yeast UUG start
COc1ccc(S(=O)(=O)N(C)C[C@@H]2OCCCC[C@@H](C)Oc3ccc(NS(=O)(=O)c4ccccc4)cc3C(=O)N([C@H](C)CO)C[C@H]2C)cc1
 : 14[16.7 µM], 5
COCC(=O)N(C)C[C@@H]1Oc2cc(-c3cccc(F)c3)ccc2S(=O)(=O)N([C@H](C)CO)C[C@H]1C
 : 9[16.7 µM], 14
COc1ccc(NC(=O)Nc2ccc3c(c2)C(=O)N([C@H](C)CO)C[C@@H](C)[C@@H](CN(C)C(=O)CCCN(C)C)OCCCC[C@@H](C)O3)cc1
 : -47[16.7 µM], 17
C[C@@H]1CN([C@@H](C)CO)C(=O)c2cccc(NC(=O)C3CCCCC3)c2O[C@H]1CN(C)Cc1ccccc1
 : 63*[16.7 µM], 9
C[C@@H]1CN([C@H](C)CO)C(=O)c2cc(NC(=O)NC3CCCCC3)ccc2O[C@@H](C)CCCCO[C@@H]1CN(C)C(=O)C1CCCCC1
 : 9[16.7 µM], 1
CCNC(=O)C[C@H]1C=C[C@H](NS(=O)(=O)c2ccc(F)cc2)[C@@H](CO)O1
 : -4[16.7 µM], -11
C[C@@H]1CN([C@@H](C)CO)C(=O)c2cc(-c3ccncc3)cnc2O[C@H]1CN(C)C(=O)C1CCOCC1
 : 25[16.7 µM], 9
C[C@H](CO)N1C[C@H](C)[C@H](CN(C)Cc2ccc(-c3ccccc3)cc2)Oc2ccc(NC(=O)Nc3ccccc3)cc2C1=O
 : 3[16.7 µM], -1
C[C@H](CO)N1C[C@H](C)[C@@H](CN(C)Cc2ccccc2)Oc2c(NC(=O)NC3CCCCC3)cccc2C1=O
 : -17[16.7 µM], 3
COc1ccccc1CNC(=O)C[C@H]1CC[C@@H](NC(=O)CN(C)C)[C@@H](CO)O1
 : -5[16.7 µM], -18
CCC(=O)Nc1ccc2c(c1)OC[C@H](C)N(Cc1ccccc1F)C[C@@H](C)[C@H](OC)CN(C)C2=O
 : -4[16.7 µM], -5
CC(C)NC(=O)N(C)C[C@@H]1Oc2ncc(C#CC3CCCCC3)cc2C(=O)N([C@@H](C)CO)C[C@H]1C
 : -7[16.7 µM], 37
CCCNC(=O)C[C@@H]1C[C@H]2c3cc(NS(=O)(=O)c4ccccc4)ccc3O[C@H]2[C@H](CO)O1
 : 15[16.7 µM], -3
Cc1noc(C)c1NC(=O)NCC[C@H]1CC[C@H](NC(=O)Cc2cccnc2)[C@@H](CO)O1
 : 15[16.7 µM], 0
CCCC#Cc1cnc2c(c1)C(=O)N([C@@H](C)CO)C[C@H](C)[C@@H](CN(C)C(=O)Nc1ccccc1OC)O2
 : -6[16.7 µM], 17
C[C@H](CO)N1C[C@H](C)[C@H](CN(C)C(=O)Nc2ccc(C(F)(F)F)cc2)Oc2ccc(NC(=O)Nc3ccccc3)cc2CC1=O
 : 5[16.7 µM], -2
CCCNC(=O)N[C@H]1CC[C@H](CC(=O)N2CCN(C)CC2)O[C@@H]1CO
 : 10[16.7 µM], -10
O=C(C[C@@H]1C=C[C@@H](NC(=O)c2ccccn2)[C@@H](CO)O1)NCc1cccc(F)c1
 : 2[16.7 µM], -3
O=C(Nc1ccc2c(c1)[C@@H]1C[C@H](CC(=O)N3CCc4ccccc4C3)O[C@@H](CO)[C@@H]1O2)NC1CCCC1
 : -6[16.7 µM], -18
Cc1ccc(S(=O)(=O)N(C)C[C@@H]2OCCCC[C@@H](C)Oc3ccc(NS(=O)(=O)c4c(C)noc4C)cc3C(=O)N([C@@H](C)CO)C[C@H]2C)cc1
 : 5[16.7 µM], -21

Single records (already shown).
CCNC(=O)C[C@H]1C=C[C@H](NS(=O)(=O)c2ccc(F)cc2)[C@@H](CO)O1 across the screens: HIV Env fusion = -4[16.7 µM]; Yeast UUG start = -11
CCCNC(=O)C[C@@H]1C[C@H]2c3cc(NS(=O)(=O)c4ccccc4)ccc3O[C@H]2[C@H](CO)O1 across the screens: HIV Env fusion = 15[16.7 µM]; Yeast UUG start = -3
COc1ccc(NC(=O)Nc2ccc3c(c2)C(=O)N([C@H](C)CO)C[C@@H](C)[C@@H](CN(C)C(=O)CCCN(C)C)OCCCC[C@@H](C)O3)cc1 across the screens: HIV Env fusion = -47[16.7 µM]; Yeast UUG start = 17

Additional entries:
Each structure is followed by: HIV Env fusion, Yeast UUG start
COc1cccc(-c2cnc3c(c2)C(=O)N([C@H](C)CO)C[C@H](C)[C@H](CN(C)C(=O)NC2CCCCC2)O3)c1
 : 3[16.7 µM], -1
O=C(Nc1ccc(F)cc1)N[C@@H]1C=C[C@@H](CC(=O)N2CCOCC2)O[C@@H]1CO
 : -2[16.7 µM], -21
C[C@@H]1CCCCO[C@@H](CN(C)C(=O)c2ccccc2)[C@@H](C)CN([C@@H](C)CO)C(=O)c2cc(NC(=O)Nc3cccc4ccccc34)ccc2O1
 : -28[16.7 µM], -13
C[C@@H]1CN([C@@H](C)CO)S(=O)(=O)c2ccc(C#C[C@@H](C)O)cc2O[C@H]1CN(C)Cc1ccncc1
 : 8[16.7 µM], -3
COc1ccccc1C#Cc1ccc2c(c1)O[C@H](CN(C)C)[C@H](C)CN([C@H](C)CO)S2(=O)=O
 : -45[16.7 µM], 2
Cc1ccc(S(=O)(=O)N(C)C[C@H]2Oc3cc(-c4cccc(F)c4)ccc3S(=O)(=O)N([C@H](C)CO)C[C@H]2C)cc1
 : 64*[16.7 µM], -23
C[C@@H]1CCCCO[C@@H](CN(C)CC2CCCCC2)[C@H](C)CN([C@H](C)CO)C(=O)c2cc(NC(=O)Cc3ccccc3)ccc2O1
 : 22[16.7 µM], 18
C[C@@H]1CN([C@H](C)CO)C(=O)Cc2cc(NC(=O)CCCCCC(=O)Nc3ccccc3N)ccc2O[C@@H]1CN(C)Cc1ccc2c(c1)OCO2
 : 10[16.7 µM], -4
C[C@@H]1CN([C@@H](C)CO)C(=O)c2cc(NC(=O)CCC(F)(F)F)ccc2O[C@@H](C)CCCCO[C@H]1CN(C)S(=O)(=O)c1ccc(Cl)cc1
 : 24[16.7 µM], 3
CC(C)CC#Cc1ccc2c(c1)O[C@H](CN(C)C(=O)Cc1cccnc1)[C@H](C)CN([C@H](C)CO)S2(=O)=O
 : -1[16.7 µM], 0
COc1ccccc1NC(=O)N[C@H]1CC[C@H](CCNS(=O)(=O)c2ccc(Cl)cc2)O[C@H]1CO
 : -3[16.7 µM], 9
COc1ccc(NC(=O)N(C)C[C@@H]2Oc3c(NC(=O)Nc4ccc(F)cc4)cccc3C(=O)N([C@H](C)CO)C[C@@H]2C)cc1
 : -4[16.7 µM], 15
CCCNC(=O)N(C)C[C@@H]1Oc2ncc(-c3ccccc3F)cc2C(=O)N([C@@H](C)CO)C[C@H]1C
 : -1[16.7 µM], 12
C[C@@H]1CN([C@H](C)CO)C(=O)Cc2cc(NC(=O)Cc3cn(C)c4ccccc34)ccc2O[C@H]1CN(C)C(=O)Nc1ccc(C(F)(F)F)cc1
 : -29[16.7 µM], -2
CC(C)C#Cc1ccc2c(c1)O[C@H](CN(C)C(=O)c1ccccn1)[C@@H](C)CN([C@@H](C)CO)S2(=O)=O
 : 13[16.7 µM], 41
O=C(C[C@@H]1CC[C@H](NS(=O)(=O)c2ccccc2)[C@H](CO)O1)N1CCc2ccccc2C1
 : 15[16.7 µM], -3
Cc1ccc(S(=O)(=O)Nc2ccc3c(c2)C(=O)N([C@@H](C)CO)C[C@@H](C)[C@@H](CN(C)S(=O)(=O)c2c(C)noc2C)OCCCC[C@@H](C)O3)cc1
 : -91[16.7 µM], -5
O=S(=O)(N[C@@H]1CC[C@H](CCn2cc(-c3cccnc3)nn2)O[C@H]1CO)c1ccccc1
 : 2[16.7 µM], -5
C[C@@H]1CN([C@H](C)CO)C(=O)c2cc(NC(=O)C3CCCCC3)ccc2O[C@@H](C)CCCCO[C@H]1CN(C)Cc1ccncc1
 : 4[16.7 µM], 0
O=C(C[C@H]1C=C[C@@H](NS(=O)(=O)c2ccc(F)cc2)[C@@H](CO)O1)N1CCC(Cc2ccccc2)CC1
 : 24[16.7 µM], 0

Overlap with the part before: 2 compounds, then new ones.
Each structure is followed by: HIV Env fusion, Yeast UUG start
C[C@@H]1CN([C@H](C)CO)C(=O)c2cc(NC(=O)C3CCCCC3)ccc2O[C@@H](C)CCCCO[C@H]1CN(C)Cc1ccncc1
 : 4[16.7 µM], 0
O=C(C[C@H]1C=C[C@@H](NS(=O)(=O)c2ccc(F)cc2)[C@@H](CO)O1)N1CCC(Cc2ccccc2)CC1
 : 24[16.7 µM], 0
COc1ccc(NC(=O)C(OC(=O)c2ccccc2)c2cccs2)cc1 (stereo not drawn)
 : -12[16.7 µM], 13
C[C@@H]1CN([C@H](C)CO)C(=O)c2cc(NS(=O)(=O)c3cccs3)ccc2O[C@@H](C)CCCCO[C@H]1CN(C)S(=O)(=O)c1cccs1
 : -59[16.7 µM], -15
C[C@@H]1CN([C@@H](C)CO)S(=O)(=O)c2ccc(-c3ccccc3F)cc2O[C@H]1CN(C)C(=O)C1CC1
 : 0[16.7 µM], 13
O=C(C[C@@H]1C[C@H]2c3cc(NC(=O)CC4CC4)ccc3O[C@H]2[C@H](CO)O1)NCC(F)(F)F
 : -9[16.7 µM], 1
COc1ccc(S(=O)(=O)N(C)C[C@H]2OCCCC[C@H](C)Oc3ccc(NC(=O)Nc4c(C)noc4C)cc3C(=O)N([C@H](C)CO)C[C@H]2C)cc1
 : 5[16.7 µM], -1
CC(C)NC(=O)N(C)C[C@@H]1Oc2ncc(C#Cc3ccc(F)cc3)cc2C(=O)N([C@@H](C)CO)C[C@H]1C
 : -7[16.7 µM], 9
C[C@@H]1CCCCO[C@@H](CN(C)Cc2ccc(C(=O)O)cc2)[C@H](C)CN([C@@H](C)CO)C(=O)c2cc(NC(=O)C3CCCCC3)ccc2O1
 : 24[16.7 µM], 3
Cc1ccc(S(=O)(=O)N[C@@H]2CC[C@@H](CC(=O)NCc3ccccc3F)O[C@H]2CO)cc1
 : -1[16.7 µM], -9
CCC(=O)Nc1ccc2c(c1)OC[C@@H](C)N(C(=O)CN1CCOCC1)C[C@H](C)[C@H](OC)CN(C)C2=O
 : -3[16.7 µM], -7
C[C@H](CO)N1C[C@H](C)[C@H](CN(C)C(=O)c2ccccc2)Oc2ncc(C#Cc3ccccc3)cc2C1=O
 : 27[16.7 µM], 25
C[C@@H]1CN([C@H](C)CO)C(=O)c2cc(C#CCC3CCCC3)cnc2O[C@@H]1CN(C)C(=O)CN(C)C
 : -6[16.7 µM], 25
CCC(=O)N[C@@H]1C=C[C@@H](CC(=O)NCc2ccc(OC)cc2)O[C@@H]1CO
 : -10[16.7 µM], -13
C[C@H](CO)N1C[C@H](C)[C@@H](CN(C)Cc2ccc(C(F)(F)F)cc2)OCCCC[C@H](C)Oc2ccc(N(C)C)cc2C1=O
 : 12[16.7 µM], -1
Cc1ccc(S(=O)(=O)N[C@H]2CC[C@H](CCn3cc(C4CCCC4)nn3)O[C@H]2CO)cc1
 : 9[16.7 µM], -3
CN(C)c1ccc(-c2ccnc3c2CC(C)(C(=O)Nc2ccc4c(c2)OCO4)O3)cc1 (stereo not drawn)
 : 2, -18
C[C@@H]1CCCCO[C@@H](CN(C)Cc2ccc(C(F)(F)F)cc2)[C@H](C)CN([C@@H](C)CO)C(=O)c2cc(NC(=O)NC3CCCCC3)ccc2O1
 : 21[16.7 µM], 13
C[C@H](CO)N1C[C@H](C)[C@@H](CN(C)CC2CC2)Oc2ccc(NS(C)(=O)=O)cc2CC1=O
 : 58*[16.7 µM], -5
COc1ccc(C#Cc2cnc3c(c2)C(=O)N([C@H](C)CO)C[C@H](C)[C@H](CN(C)C(C)=O)O3)cc1
 : -2[16.7 µM], 11
Cc1noc(C)c1S(=O)(=O)Nc1ccc2c(c1)CC(=O)N([C@H](C)CO)C[C@@H](C)[C@@H](CN(C)S(=O)(=O)c1ccc(Cl)cc1)O2
 : -6[16.7 µM], 12
C[C@@H]1CCCCO[C@H](CN(C)Cc2ccc(C(=O)Nc3ccccc3N)cc2)[C@@H](C)CN([C@H](C)CO)C(=O)c2cc(NS(C)(=O)=O)ccc2O1
 : 32[16.7 µM], 2
Cc1noc(C)c1S(=O)(=O)Nc1ccc2c(c1)C(=O)N([C@@H](C)CO)C[C@H](C)[C@H](CN(C)S(=O)(=O)c1c(C)noc1C)OCCCC[C@@H](C)O2
 : -6[16.7 µM], 41
COc1ccc([C@H]2C[C@H]3C(Br)=CC2C(=O)[C@]32CO2)cc1OC
 : -7[16.7 µM], 0
CNC[C@H]1Oc2cc(C#CCN(C)C)ccc2S(=O)(=O)N([C@@H](C)CO)C[C@@H]1C
 : -21[16.7 µM], 0
COc1cccc(CNC(=O)C[C@H]2CC[C@H]3[C@H](COc4ccc(NC(C)=O)cc4C(=O)N3C)O2)c1
 : -18[16.7 µM], 0
CN1C(=O)c2cc(NC(=O)c3cnccn3)ccc2OC[C@H]2O[C@@H](CC(=O)O)CC[C@H]21
 : 9[16.7 µM], -10
C[C@H]1CN([C@@H](C)CO)C(=O)c2cc(-c3cccc(F)c3)cnc2O[C@H]1CN(C)S(=O)(=O)c1cccc(F)c1
 : 30[16.7 µM], -2
CN(C)CC(=O)N[C@@H]1CC[C@H](CCn2cc(C3CCCC3)nn2)O[C@H]1CO
 : -9[16.7 µM], 10
C[C@H]1CN([C@@H](C)CO)S(=O)(=O)c2ccc(C#CC3CC3)cc2O[C@H]1CN(C)Cc1cccnc1
 : -1[16.7 µM], 6
